# Mtb H37Rv = Mycobacterium tuberculosis H37Rv growth inhibition, putative kinase inhibitor library, confirmatory dose response (AID 2842). M. tuberculosis H37Rv growth inhibition; higher % means a stronger effect; some inactives read as strong as hits. 24,000 compounds, 5.2% hits. inhibition, % at 10 µg/mL, or IC90 in µg/mL where a hit was titrated;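 active = confirmed in a dose series; about a fifth of its hits are not listed in these tables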;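 also: bacteria incubated one week before Alamar blue readout; 0% = bacteria only wells and 100% = bacteria with high antibiotic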
# * hit, by the source's call.
SMILES,Mtb H37Rv
Cc1c(Cl)cccc1NS(=O)(=O)c1cc2c3c(c1)C(C)C(=O)N3CCC2 (stereo unspecified),46%
COc1ccc(C(=O)Nc2nnc(-c3ccc(Cl)cc3)s2)cc1,4%
CC(=O)N1CCN(C2=NC(=O)/C(=C\c3cccc([N+](=O)[O-])c3)S2)CC1,-16%
COc1ccc(NC(=O)CSc2nc3c(c(=O)n2-c2ccc(C)cc2)SCC3)cc1,5%
COC(=O)c1c(NC(=O)c2ccccc2Cl)sc2c1CC(C)(C)NC2(C)C,45µg/mL*
NC(=O)CCn1cnc2ccccc21,-9%
Cc1c(C(N)=O)sc2ncn(CC(=O)NCc3ccccc3)c(=O)c12,-2%
COc1ccc(CC(=O)Nc2ccc(-c3ccc4nnc(C)n4n3)cc2)cc1OC,-5%
c1ccc(Cn2cc3c(-c4ccc5c(c4)OCO5)nnc-3c3cc4c(cc32)OCO4)cc1,15%
Cn1c(=O)c2c(SCC(=O)Nc3nc4ccccc4s3)nc(-c3cccs3)nc2n(C)c1=O,-10%
CCOC(=O)N1CCN(c2ncnc3nc[nH]c23)CC1,0%
Cc1cccc(NC(=O)CS(=O)(=O)c2cn(C)c3ccccc23)c1,13%
COCCOC(=O)C1=C(C)NC(=O)NC1c1ccc(C(=O)O)cc1 (stereo unspecified),-11%
CSc1nnc(C)c(=O)n1COC(=O)c1ccc(Cl)c([N+](=O)[O-])c1,-2%
Fc1ccc(N2CCN(c3ncnc4nc[nH]c34)CC2)cc1,11%
CCOC(=O)c1nn(-c2ccc(F)cc2)c(=O)c2c(NC(=O)CCCCl)scc12,9%
CC1(C)Cc2c(sc(NC(=O)c3ccc(C#N)cc3)c2C#N)C(C)(C)N1,9%
O=C(Cn1cnc2c(cnn2-c2ccccc2)c1=O)NCc1ccccc1,18%
Nn1c(SCC(=O)Nc2cc(Cl)ccc2Cl)nnc1C1CCCCC1,6%
COC(=O)C1Sc2[nH]c(=O)sc2C(c2cccc([N+](=O)[O-])c2)C1C(=O)OC (stereo unspecified),-22%
CCOC(=O)c1cc(C#N)c(SCC(=O)Nc2ccc(C(C)=O)cc2)[nH]c1=O,-8%
COc1ccc(-c2nnc3c4ccccc4n(Cc4cccc(C)c4)cc2-3)cc1OC,34%
COc1ccc2cc(CCNC(=O)CC3CCCCC3)c(=O)[nH]c2c1,-2%
Cc1cccc(C2Oc3ccccc3C3CC(c4cccc(NS(C)(=O)=O)c4)=NN32)c1 (stereo unspecified),6%
CCCC(CCC)C(=O)Oc1cc(C)[nH]c(=O)c1[N+](=O)[O-],4%
CC(C)Cn1c2c(c(=O)[nH]c1=O)C(c1ccc(Cl)cc1)C1=C(COC1=O)N2 (stereo unspecified),0%
O=C(CSc1nnc(Cc2cc(=O)[nH]c(=O)[nH]2)n1-c1ccc(F)cc1)Nc1ccc2c(c1)OCO2,-5%
Cc1nnc(SCC(=O)Nc2ccc(F)cc2)n(N)c1=O,-15%
COc1ccc(OC)c(/C=N/Nc2nnc(C)c(=O)[nH]2)c1,-3%
CN(Cc1ccccc1)S(=O)(=O)c1ccc(C(=O)Nc2ccc3ncsc3c2)cc1,7%

# Shown with each value named: entries from further up.
> CCCC(CCC)C(=O)Oc1cc(C)[nH]c(=O)c1[N+](=O)[O-]
  Mtb H37Rv = 4%
> COC(=O)C1Sc2[nH]c(=O)sc2C(c2cccc([N+](=O)[O-])c2)C1C(=O)OC (stereo unspecified)
  Mtb H37Rv = -22%
> COc1ccc2cc(CCNC(=O)CC3CCCCC3)c(=O)[nH]c2c1
  Mtb H37Rv = -2%
> O=C(CSc1nnc(Cc2cc(=O)[nH]c(=O)[nH]2)n1-c1ccc(F)cc1)Nc1ccc2c(c1)OCO2
  Mtb H37Rv = -5%

# Later entries
SMILES,Mtb H37Rv
CC1=C(C(N)=O)C(c2ccccc2OCc2ccc(C)cc2)n2ncnc2N1 (stereo unspecified),6%
Cc1cc(C)cc(-n2nnc3c(=O)n(CC(=O)c4ccc(Cl)cc4)cnc32)c1,0%
CCC(C)NS(=O)(=O)c1cc2c3c(c1)CCC(=O)N3CCC2 (stereo unspecified),-19%
O=C(Nc1ccc(O)cc1)c1cc2ccccc2c(=O)s1,-1%
O=C(Nc1ccc2c(c1)C(=O)NC2=O)c1ccc(S(=O)(=O)N2CCCC2)cc1,2%
O=C(CCc1ccccc1)Nc1c(C(=O)Nc2cccc(Cl)c2)oc2ccccc12,2%
Cc1cc(C)c(NC(=O)CSC2=C(C#N)C(c3ccco3)CC(=O)N2)c(C)c1 (stereo unspecified),1%
O=C(NC(=S)NCc1cccnc1)c1ccccc1Cl,-7%
O=C1Nc2ccc(CNS(=O)(=O)c3ccccc3)c3cccc1c23,11%
c1nc(NC2CCCCCC2)c2[nH]cnc2n1,41%
COc1ccc(-c2nnc3ccc(SCC(=O)N4CCC(C)CC4)nn23)cc1OC,-8%
CCOC(=O)c1nn(-c2ccc(F)cc2)c(=O)c2c(NC(=O)C(C)Oc3ccccc3)scc12 (stereo unspecified),-9%
O=C(CSc1nc2c(c(=O)n1-c1ccc(F)cc1)SCC2)NCc1ccco1,7%
Cc1cccc(NC(=O)CSc2c[nH]c3ccccc23)c1,84%
CC(C)(C)c1ccc(C(=O)Nc2ccc(S(=O)(=O)Nc3nccs3)cc2)cc1,7%

# Reprinted from the part before: seven compounds, then new ones.
SMILES,Mtb H37Rv
O=C1Nc2ccc(CNS(=O)(=O)c3ccccc3)c3cccc1c23,11%
c1nc(NC2CCCCCC2)c2[nH]cnc2n1,41%
COc1ccc(-c2nnc3ccc(SCC(=O)N4CCC(C)CC4)nn23)cc1OC,-8%
CCOC(=O)c1nn(-c2ccc(F)cc2)c(=O)c2c(NC(=O)C(C)Oc3ccccc3)scc12 (stereo unspecified),-9%
O=C(CSc1nc2c(c(=O)n1-c1ccc(F)cc1)SCC2)NCc1ccco1,7%
Cc1cccc(NC(=O)CSc2c[nH]c3ccccc23)c1,84%
CC(C)(C)c1ccc(C(=O)Nc2ccc(S(=O)(=O)Nc3nccs3)cc2)cc1,7%
CC(Cl)C(=O)Nc1nnc(-c2ccccc2Cl)s1 (stereo unspecified),8%
CC1CN(CC(O)Cn2c3ccccc3c3ccccc32)CC(C)O1 (stereo unspecified),12%
CCOC(=O)c1nn(-c2ccccc2)c(=O)c2c(NC(=O)c3ccc(C(F)(F)F)cc3)scc12,2%
CCOC(=O)c1nn(-c2ccc(OC)cc2)c(=O)c2c(NC(=O)c3ccc(OC)cc3OC)scc12,8%
CSc1ccc(/C=[N+](/[O-])c2ccccc2)cc1,4%
CSc1nc2ccc3nc(NC(=O)c4ccc(Br)cc4)sc3c2s1,-7%
Cc1nnc2ccc(-c3cccc(NC(=O)Cc4cccs4)c3)nn12,3%
O=C(Nc1c(C(=O)Nc2ccc3c(c2)OCO3)oc2ccccc12)c1ccco1,-11%
CCOc1ccccc1NC(=O)CC1Nc2cc(C)c(C)cc2NC1=O (stereo unspecified),15%
COc1cc(C(=O)Nc2nc3ccccc3s2)cc(OC)c1OC,-2%
Cc1ccc(C)c(-c2nnc(NC(=O)c3cccs3)o2)c1,83%
CCOC(=O)c1nn(-c2ccc(F)cc2)c(=O)c2c(NC(=O)c3cc(OC)c(OC)c(OC)c3)scc12,-10%
O=C(NCc1cccnc1)C(=O)Nc1cc2c3c(c1)CCC(=O)N3CCC2,-7%
COc1ccc(-c2nnc3c4ccccc4n(Cc4cccc(C)c4)cc2-3)cc1,13µg/mL*
CCS(=O)(=O)Nc1cc2c3c(c1)CCN3C(=O)CC2,-3%
COc1cc(OC)cc(C(=O)Nc2sc3c(c2C(N)=O)CC(C)(C)NC3(C)C)c1,17%
Cc1ccc(-c2nnc(NC(=O)CCOc3ccccc3)o2)c(C)c1,1.8µg/mL*
O=C(NN1C(=O)C2C3CC(C(Br)C3Br)C2C1=O)c1ccncc1 (stereo unspecified),63%
O=C(Nc1ccc(-c2ccc3nnc(-c4ccncc4)n3n2)cc1)c1ccc(F)cc1F,-17%
COc1ccc(-c2csc(NC(=O)/C(C)=C\C(=O)O)n2)cc1,-8%
Cc1ccc(NC(=O)CSc2nc3c(c(=O)n2Cc2ccccc2)SC(C)C3)cc1 (stereo unspecified),5%
Cc1ccc(N2C(=O)C3N=NN(CC(=O)Nc4ccc(C)c(F)c4)C3C2=O)cc1C (stereo unspecified),-16%
Fc1ccc2nc(Nc3nc4ccc(F)cc4s3)sc2c1,11%
COc1cc2c(=O)c(S(=O)(=O)c3ccc(C)cc3)cn(Cc3ccccc3)c2cc1OC,3%
CCCCOc1ccc(C(=O)Nc2nnc(-c3cc(C)ccc3C)o2)cc1,25µg/mL*
Cc1c(Cl)cccc1-n1ccnc(NCCCc2ccccc2)c1=O,20%
O=C(Nc1nc(-c2cccc3ccccc23)cs1)c1ccc(S(=O)(=O)N2CCCC2)cc1,16%
CCCCN(CCCNc1ncnc2nc[nH]c12)c1ccccc1,74%
Cc1ccccc1NC(=O)CSC1=NS(=O)(=O)c2cc(F)ccc2N1,-3%
COc1ccccc1-c1ccc2nnc(SCc3ccc([N+](=O)[O-])cc3)n2n1,-3%
O=C(O)c1cc(-c2ccccc2)n[nH]1,11%
O=C(CN1N=NC2C(=O)N(c3ccc(Cl)cc3)C(=O)C21)Nc1cc(F)ccc1F (stereo unspecified),-12%
CCOc1ccc(-c2nc(C(N)=O)c3[nH]c(=O)n(-c4cccc(C)c4)c3n2)cc1,-11%
CN(C)c1ccc(C(=O)Nc2nc3c(ccc4ccccc43)s2)cc1,19%
CCC(=O)Nc1c(C(=O)Nc2ccc3c(c2)OCCO3)oc2ccccc12,0%
CCS(=O)(=O)NCC(c1cccnc1)N1CCN(Cc2ccccc2)CC1 (stereo unspecified),-3%
Cc1ccc2c(c1)c1nnc(-c3ccc4c(c3)OCO4)c-1cn2Cc1ccc(Cl)cc1,32%
Cc1ccnc(SCc2cc(=O)c(OC(=O)c3ccc(-c4ccccc4)cc3)co2)n1,1%
O=C(Nc1ncc(Cc2cccc(C(F)(F)F)c2)s1)c1sc2ccccc2c1Cl,21%
Cc1csc(NC(=O)CSc2nc(C3CCCCC3)nc3c2c(=O)n(C)c(=O)n3C)n1,-2%
COc1ccc(NC(=O)c2cc3cccc(OC)c3o/c2=N\NS(=O)(=O)c2ccc(C)cc2)cc1,1%
NC(=O)c1oc2ccccc2c1NC(=O)C(c1ccccc1)c1ccccc1,-8%
O=C1C(=O)N(c2nccs2)C(c2ccc(Cl)cc2)/C1=C(/O)c1ccc(F)cc1 (stereo unspecified),3%
O=C1CCc2cc(S(=O)(=O)Nc3ccccc3Cl)cc3c2N1CCC3,1%
CCC(C)Sc1nc2c(c(=O)[nH]c(=O)n2C)n1Cc1ccc(C)cc1 (stereo unspecified),83%

# Laid out differently: results already given.
CCC(=O)Nc1c(C(=O)Nc2ccc3c(c2)OCCO3)oc2ccccc12
  Mtb H37Rv = 0%
Cc1ccc2c(c1)c1nnc(-c3ccc4c(c3)OCO4)c-1cn2Cc1ccc(Cl)cc1
  Mtb H37Rv = 32%
Cc1ccnc(SCc2cc(=O)c(OC(=O)c3ccc(-c4ccccc4)cc3)co2)n1
  Mtb H37Rv = 1%
O=C1C(=O)N(c2nccs2)C(c2ccc(Cl)cc2)/C1=C(/O)c1ccc(F)cc1 (stereo unspecified)
  Mtb H37Rv = 3%

# Going on with the list:
SMILES,Mtb H37Rv
CN(C)c1nc2c(c(=O)[nH]c(=O)n2C)n1Cc1ccc(F)cc1,-1%
O=C(Nc1c(C(=O)Nc2ccc3c(c2)OCCO3)oc2ccccc12)c1cccc(F)c1,-11%
O=c1[nH]c(N/N=C/c2ccncc2)nnc1-c1ccccc1,7%
CS(=O)(=O)c1ccc(CC(=O)Nc2nnc(-c3cccs3)o2)cc1,-5%
Cc1cc2nnc(SCC(=O)N(C)C)n2c2ccccc12,-8%
COc1ccc(Cl)cc1CN1CCN(c2cc(C)c(C#N)c3nc4ccccc4n23)CC1,-2%
Cc1cccc(N2C(=O)N(c3ccc(F)cc3)C3CS(=O)(=O)CC32)c1C (stereo unspecified),-11%
CCCSC1=C(C#N)C(c2cc(OC)ccc2OC)CC(=O)N1 (stereo unspecified),-3%
CCSc1ccccc1C(=O)Nc1nc2c(s1)COc1ccccc1-2,2%
CCS(=O)(=O)c1cccc(C(=O)Nc2nc(-c3ccc(Br)cc3)cs2)c1,-1%
CCCCNc1nc2c(c(=O)[nH]c(=O)n2C)n1CC(O)COc1cccc(C)c1 (stereo unspecified),-3%
O=C(CCCCCn1c(=O)[nH]c2ccsc2c1=O)NC1CCCC1,-4%
O=C(Nc1nc2c(s1)COc1ccccc1-2)c1cccc2ccccc12,50%
CCCc1cc(=O)[nH]c2nnc(SCC(=O)Nc3cccc(C(F)(F)F)c3)n12,-7%
Cc1ccc(-c2csc(Nc3nc4cc5c(cc4s3)OCO5)n2)o1,27µg/mL*
CC(C)Sc1nc2c(c(=O)[nH]1)C(c1ccc(Br)cc1)C1=C(CCCC1=O)N2 (stereo unspecified),42%
O=C(CSc1ccc2nnc(-c3ccncc3)n2n1)NCc1ccccc1,-1%
O=C(Nc1ccccc1O)c1ccccc1-c1n[nH]c2c1CCCC2,4%
CC(C)Oc1ccc(C(=O)Nc2nnc(-c3ccccc3Cl)s2)cc1,0%
CCOC(=O)CSC(CC)C(=O)Nc1nnc(CC)s1 (stereo unspecified),19%
O=c1c2nnn(-c3ccc(Cl)cc3)c2ncn1Cc1cccnc1,1%
C=CCn1c(N2CCN(Cc3ccccc3F)CC2)nc2c1c(=O)[nH]c(=O)n2C,-10%
O=C(CCC1CCCC1)Nc1c(C(=O)Nc2ccc([N+](=O)[O-])cc2)oc2ccccc12,3%
Cc1cc(NC(=O)c2ccc(NS(=O)(=O)c3ccc(F)cc3)cc2)no1,4%
COc1cc2c3nnc(-c4ccc(C)cc4)c-3cn(Cc3ccccc3)c2cc1OC,18%

# An excerpt, so the mix of outcomes need not match the whole.
